PrP UTR inh: inhibition of PrP 5' UTR reporter expression; cell-based PrP 5' UTR mRNA reporter, plate reader; inhibition, % (no concentration beside the values); AID 488862, 2010; hit rate 0.35% among 340,000;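 active = every replicate at 50% or more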;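 note: 0 = median of the neutral control wells; tested in H4 reporter cells; numbers are from one replicate; inactives centre near -14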
Mtb hypoxia inh: PubChem AID 1159583; M. tuberculosis hypoxia-regulated fluorescent reporter, fluorescence; fluorescence inhibition, % (test concentration not listed); hit rate 0.1% among 300,000;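 active = 35 to 45% if threefold the growth effect, above 45% if 1.5-fold the growth effect; inactive = the rest, general growth blockers included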;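 note: wells of about 50 µL received 100 nL stock; 0% = vehicle wells and 100% = reference inhibitor wells; whole bacteria with a GFP reporter of the hypoxia response; strong numbers were not always called active; many hits fall short of the cut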
Autofluor counter: flagged as autofluorescent in microsphere protease counterscreen | compound autofluorescence counterscreen, microsphere flow cytometry; stronger effect = higher value | fluorescence intensity (test concentration not listed) | AID 624483 | hit rate 3.1% among 360,000;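 active = at least 3 SD above the mean of all compounds, about 16000 in these data; inconclusive = too few beads counted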;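 note: 100 nL of 1 mM stock went into each well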
Sa RN4220 lethal: growth inhibition of S. aureus RN4220, primary screen, OD600 | AID 1259311, 2017 | 16 h | inhibition, % (concentration not given with the values) | hit rate 0.33% among 330,000;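 active = z-score of -3 or lower and OD600 up to 0.18 on both plates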;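 note: plate controls were untreated cells for no effect and reference antibiotic for full effect; stock transfer was 100 nL into about 80 µL; one replicate is shown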
Sa ugtP lethal: growth inhibition of ugtP-null S. aureus, primary screen, RN4220 ugtP deletion, OD600; growth inhibition, % (test concentration not listed); 16 h; some inactives read as strong as hits; AID 1259309, 2017; hit rate 0.54% among 330,000;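 active = z-score under -3 and OD600 up to 0.15 on both plates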;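 note: plate controls were untreated wells for no effect and antibiotic for full effect; wells of about 80 µL received 100 nL stock; the first replicate is given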
BJeLR viability: MLPCN primary cell-based screen for lethality selective to Ras in HRASV12 cells; BJeLR (HRASV12) viability, CellTiter-Glo ATP luminescence, 48 h; reference of the scale not given here; AID 1554, 2009; inhibition, % (test concentration not listed); hit rate 0.17% among 300,000;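 active = replicate mean above 50%; inconclusive = above 50% but judged a plate artefact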;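 note: 50 nL library stock added to about 25 µL; numbers are from one replicate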
Mtb hypoxia inh growth: further read-out of Mtb hypoxia inh, marked with its call; growth inhibition, %; measured here: M. tuberculosis growth (absorbance);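 0% = vehicle and 100% = reference antibiotic; read after six days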
* hit, by the source's call; ? = inconclusive; . = not tested or not shown.

SMILES | PrP UTR inh | Mtb hypoxia inh | Mtb hypoxia inh growth | Autofluor counter | Sa RN4220 lethal | Sa ugtP lethal | BJeLR viability
CC(C)Cn1c(=O)c2c(nc3n2CCCN3CCc2ccccc2)n(C)c1=O | -9.4 | . | . | 3774 | -4.9 | 14.5 | 6.2
CC1=NNC(=O)C1CCC(=O)NN=C/C(Br)=C/c1ccccc1 (stereo unspecified) | . | 12.7 | 1.1 | . | 1.5 | -3.9 | .
Cc1nn(CC(=O)NC2C(=O)N3C(C(=O)O)=C(CSc4nnnn4C)CSC23)cc1Br (stereo unspecified) | -6.0 | . | . | 4237 | 100.0* | 99.3* | 1.2
CCOc1ccc(S(=O)(=O)N2CCC(C(=O)NCc3ccccc3CN3CCCC3)CC2)cc1 | -19.0 | -0.8 | 4.4 | 4085 | 1.7 | 2.0 | .
Brc1cccc(-c2nnc3sc(CN4CCC5(CC4)OCCO5)cn23)c1 | -17.4 | 2.2 | 5.5 | 24422* | 2.1 | 3.5 | 7.1
Cc1cc(C(=O)CN2C(=O)c3cccc(N)c3C2=O)c(C)n1Cc1cccs1 | -115.1 | . | . | 4203 | -2.4 | 3.1 | -10.5
O=C(CCc1nc2ccccc2c(=O)[nH]1)Nc1ccc(F)cc1 | -14.2 | 4.6 | 2.2 | 1969 | -3.1 | -0.2 | -2.7
CC1=C(C(=O)Nc2ccccc2)C(c2ccc(C(C)C)cc2)N2C(=O)CSC2=N1 (stereo unspecified) | -4.3 | 7.1 | 0.3 | 5640 | 6.7 | 3.4 | 0.9
CC(C)CNC(=S)NC(=O)c1ccc(Cl)cc1 | -54.2 | 3.9 | 1.9 | 2348 | 1.3 | 91.1* | -11.5
N#CC1(NC(=O)CN2c3cccc4cccc(c34)S2(=O)=O)CCCCC1 | 2.1 | -2.9 | 3.9 | ? | 0.9 | -1.8 | 4.4
COc1ccccc1-n1c(C)nc2cc(C(=O)NCCN3CCOCC3)ccc21 | -12.1 | -1.9 | 6.9 | 2141 | 1.3 | -0.2 | 0.7
Cc1ccc(NC(=S)NC(=O)c2ccc(Br)o2)c(C)c1 | -54.2 | 10.9 | 4.0 | 4549 | 4.7 | -2.2 | 4.2
CCOc1ccccc1CN1CCN(Cc2ccc(C)o2)C(CCO)C1 (stereo unspecified) | -12.1 | -3.0 | -8.8 | 2624 | 0.9 | 4.7 | 5.3
CCN(CC)C(=O)CN(C#N)c1nc(Cl)nc(N(C)C)n1 | -5.1 | -3.3 | -8.9 | 4527 | 5.2 | 10.5 | -5.6
CCN(CC)C(=O)C(=O)N/N=C/c1ccc(F)cc1 | -15.5 | . | . | 4305 | . | . | 3.8
CC(C)CCN1CCN(Cc2coc3ccccc3c2=O)CC1CCO (stereo unspecified) | -9.2 | -8.4 | 9.5 | 4086 | 0.9 | 1.4 | -14.0
COc1ccc(NS(=O)(=O)c2c(C)cc(C)cc2C)cn1 | -13.0 | 7.0 | 4.1 | 4412 | 1.8 | 3.6 | 0.5
COc1cc(CN2CCNC(=O)C2CC(=O)NC2CCCCC2)cc(OC)c1 (stereo unspecified) | -5.0 | 4.3 | 8.3 | 4431 | 4.6 | -3.6 | -0.7
NS(=O)(=O)c1ccc(CCNC(=O)c2ccncc2)cc1 | -14.2 | 0.7 | -2.3 | 4054 | 6.6 | 8.7 | 5.3
COC(=O)C1=C(N)Oc2cc(C)[nH]c(=O)c2C1c1ccc(Cl)cc1 (stereo unspecified) | -30.5 | 11.0 | 6.2 | 4431 | 1.2 | -1.7 | -3.8

Six compounds from above, ordered by SMILES length, smallest number first:
SMILES | PrP UTR inh | Mtb hypoxia inh | Mtb hypoxia inh growth | Autofluor counter | Sa RN4220 lethal | Sa ugtP lethal | BJeLR viability
CCN(CC)C(=O)C(=O)N/N=C/c1ccc(F)cc1 | -15.5 | . | . | 4305 | . | . | 3.8
COc1ccc(NS(=O)(=O)c2c(C)cc(C)cc2C)cn1 | -13.0 | 7.0 | 4.1 | 4412 | 1.8 | 3.6 | 0.5
N#CC1(NC(=O)CN2c3cccc4cccc(c34)S2(=O)=O)CCCCC1 | 2.1 | -2.9 | 3.9 | ? | 0.9 | -1.8 | 4.4
CC1=C(C(=O)Nc2ccccc2)C(c2ccc(C(C)C)cc2)N2C(=O)CSC2=N1 (stereo unspecified) | -4.3 | 7.1 | 0.3 | 5640 | 6.7 | 3.4 | 0.9
CCOc1ccc(S(=O)(=O)N2CCC(C(=O)NCc3ccccc3CN3CCCC3)CC2)cc1 | -19.0 | -0.8 | 4.4 | 4085 | 1.7 | 2.0 | .
Cc1nn(CC(=O)NC2C(=O)N3C(C(=O)O)=C(CSc4nnnn4C)CSC23)cc1Br (stereo unspecified) | -6.0 | . | . | 4237 | 100.0* | 99.3* | 1.2

New compounds follow.
SMILES | PrP UTR inh | Mtb hypoxia inh | Mtb hypoxia inh growth | Autofluor counter | Sa RN4220 lethal | Sa ugtP lethal | BJeLR viability
COc1ccc(N2CCN(C(=O)c3ccccc3NS(=O)(=O)c3ccc(C)cc3)CC2)cc1 | -0.7 | 6.6 | 15.1 | ? | 2.1 | 13.6 | 1.8
CC(C)(C)NC(=O)c1cccc(NC(=O)Cc2cccs2)c1 | -36.3 | 1.5 | 2.5 | 3990 | 14.7 | 5.5 | 2.9
COc1ccc(/C=C(/NC(=O)c2ccccc2)C(=O)NN=Cc2ccc3c(c2)OCO3)cc1OC | . | -9.8 | -0.1 | . | -2.4 | -17.7 | .
Cc1ccc(C)c(S(=O)(=O)N/N=C/c2cccnc2)c1 | -0.2 | . | . | 2648 | . | . | -1.1
Cc1ccccc1CNC(=O)c1cc2ccccc2o1 | -37.4 | . | . | 3731 | . | . | -17.2
Cc1ccccc1N1CC(C(=O)Nc2ccc3c(c2)OCO3)CC1=O (stereo unspecified) | -18.0 | -1.0 | -1.3 | 5945 | 0.4 | -0.7 | -1.8
Cc1ccc(C(O)(C(=O)NNS(=O)(=O)c2ccc(C)cc2)c2ccc(C)cc2)cc1 | -7.9 | 3.4 | 7.0 | 2365 | 5.7 | -6.9 | 8.8
COc1ccc(C2SCC(=O)Nc3c2c(C)nn3-c2ccccc2)cc1OC (stereo unspecified) | -13.8 | 2.7 | 7.4 | 23949* | -0.4 | -2.9 | -1.2
Cc1ccc(-c2cc(-c3ccco3)c3c(N)c(C(=O)NN)oc3n2)cc1 | -33.9 | -1.6 | 4.5 | 4125 | 1.2 | -18.0 | -6.7
COc1cccc(OC)c1C(=O)NC(=S)Nc1ccc2c(c1)C(=O)N(C)C2=O | -16.3 | -7.4 | 0.9 | 2410 | 4.6 | 7.1 | -2.6
CCn1cc(C(=O)NCCOC)c(=O)c2ccc(C)nc21 | -14.2 | . | . | 4274 | 0.6 | 1.3 | -0.3
C=CCc1cc(OC)ccc1OCCN1CC(C)OC(C)C1 (stereo unspecified) | -21.4 | -0.5 | 15.4 | 3221 | 5.0 | 5.5 | -9.7
O=C(Nc1ccc(F)cc1)Nc1ccc(Cl)cn1 | -83.4 | 9.1 | 4.2 | 18496* | 5.0 | -11.7 | 5.0
COc1cccc(NC(=S)N(CCCN2CCOCC2)C(C)c2cc3ccccc3o2)c1 (stereo unspecified) | -54.2 | -5.4 | -7.9 | 3983 | -2.1 | 3.2 | 16.9
Nc1nnnn1/N=C/c1cc(Cl)cc(Cl)c1O | -21.3 | . | . | 3187 | . | . | -2.9
O=C(Cn1c(-c2cscn2)nc2ccccc21)Nc1ccc2ccccc2c1 | . | 4.1 | -0.1 | 11841 | 13.2 | -4.7 | 1.9
Cc1noc2ncnc(Sc3ccccc3Cl)c12 | -5.1 | . | . | 3526 | 1.9 | 3.9 | 4.4
O=C(COc1ccc(-c2ccccc2)cc1)NN=Cc1ccccc1Br | . | -3.2 | 9.4 | . | -1.3 | -4.2 | .
Cc1cc(C(=O)NC2CCC(O)CC2)c(C)o1 (stereo unspecified) | -6.3 | 2.8 | 4.7 | 6648 | 10.9 | 1.3 | .
COc1ccccc1OCC(=O)N1CCN(Cc2ccc3c(c2)OCO3)CC1 | -10.9 | 6.1 | 11.7 | 4463 | 2.4 | 2.0 | -3.5
CCOC(=O)C1=NNC(C(=O)OCC)C1C(=O)OCC (stereo unspecified) | -47.8 | 13.6 | 15.4 | 3618 | -1.6 | 1.3 | .
COc1ccccc1NC(=O)c1ccc(NS(=O)(=O)c2ccc(F)c(F)c2F)cc1 | -8.5 | -0.7 | -3.7 | 1928 | -5.3 | 3.1 | -2.6
COc1cccc(C2CC(=O)N3CN(c4cccc(Cl)c4C)CSC3=C2C#N)c1OC (stereo unspecified) | -4.8 | 4.6 | 5.7 | 5012 | -15.8 | -8.0 | 1.6
COc1cccc(-c2c(-c3cc(OC)cc(OC)c3)n(C)c3ccc(-c4ccc5[nH]ccc5c4)cc23)c1 | -18.3 | 18.4 | 10.5 | 3565 | 2.9 | 3.1 | .
Cc1cc(C)cc(NC(=O)C2CCCN(c3nc(C)cc(C)n3)C2)c1 (stereo unspecified) | 13.9 | -0.3 | 4.2 | 22398* | -1.0 | 0.8 | -0.4
CC1(C)CC(=O)c2sc(NC(=O)C3COc4ccccc4O3)nc2C1 (stereo unspecified) | -28.6 | 3.9 | 10.8 | 5893 | -13.5 | -5.6 | -1.4
O=C(Cn1cc(C(F)(F)F)ccc1=O)Nc1ccc2c(c1)OCCO2 | -21.7 | 1.0 | 2.4 | 2989 | 0.9 | 4.2 | .
C=CCC1NS(=O)(=O)OC2CCCCC12 (stereo unspecified) | -11.5 | 11.3 | 3.5 | 3587 | 4.9 | -3.8 | -1.5
Cc1oc2c(CN3CCOCC3)c(O)ccc2c(=O)c1-c1ccccc1 | 1.7 | 10.2 | 5.2 | 5940 | 5.9 | -8.2 | -1.3
CCCCn1c(N=Cc2c[nH]c3ccccc23)nc2ccccc21 | . | 18.3 | 5.6 | . | 6.8 | -2.0 | .
Cc1occc1C(=O)NCc1ccco1 | -3.8 | 4.7 | 4.9 | 2140 | 3.0 | -5.9 | 3.8
O=C(C[n+]1cc(-c2ccc(F)cc2)n2c1CCC2)N1c2ccccc2Sc2ccccc21 | -99.5 | 13.8 | 21.3 | 2536 | 11.0 | -12.2 | -8.7
CN1C(=O)NC(c2ccc(Cl)cc2)C2=C1CC(C)(C)CC2=O (stereo unspecified) | -7.2 | 9.5 | 9.0 | 3568 | 2.5 | 9.3 | -19.5
COc1ccc(-c2csc(Cc3nnc(N4CCOCC4)n3-c3ccccc3)n2)cc1OC | -9.3 | 1.9 | 1.4 | 7814 | 3.9 | 4.1 | -15.1
O=C(Nc1ccncc1)Nc1cccc(Cl)c1Cl | -11.1 | 1.2 | -4.1 | 13368 | -4.9 | 6.4 | 6.6
O=C(Cc1c(F)cccc1Cl)Nc1ccccc1C(=O)N1CCOCC1 | -8.9 | 4.4 | 10.2 | ? | -0.6 | 0.9 | -9.8
CCN(CC)C(CNS(=O)(=O)c1ccc(Cl)cc1)c1ccccc1 (stereo unspecified) | -27.2 | 0.2 | 11.2 | 4308 | 3.0 | -0.1 | .
O=C(/C=C/c1ccccc1)NCCc1cnc[nH]1 | -8.0 | . | . | 4981 | 2.2 | 6.4 | -1.7
COC(=O)Cc1csc(/N=C/c2c(O)n(-c3cccc(C(F)(F)F)c3)c(=O)c3ccccc23)n1 | -23.0 | -1.0 | -3.6 | 2551 | 8.0 | -2.2 | -2.2
Cc1ccccc1Nc1c([N+](=O)[O-])ccc2nonc12 | -13.8 | -7.6 | -1.1 | 2830 | 8.3 | 2.1 | -16.4
CC12CCC(C)(c3nc4ccccc4nc31)C2(C)C | -9.5 | 4.3 | 2.6 | 2053 | 7.3 | 0.2 | 4.0
CN1CCN(CCCNC(=O)CN2C(=O)COc3ccccc32)CC1 | -3.8 | 4.0 | -4.2 | 3034 | 6.7 | 6.8 | -4.8
CC(=O)c1sc(NC(=O)c2ccccc2)nc1-c1ccccc1 | -59.3 | 4.2 | 9.0 | 3968 | 21.2 | 15.2 | -4.5
CC(=O)Oc1c(C)c(OC(C)=O)c2c(c1C(C)=O)OC1CC(=O)C(C(C)=O)=C(O)C21C (stereo unspecified) | -6.0 | 15.6 | 12.1 | 2997 | 8.1 | 2.7 | 11.1
COC(=O)c1c(NC(=O)C2CC(=O)NN2Cc2ccccc2)sc(C)c1C (stereo unspecified) | -17.5 | 8.1 | -0.9 | 2484 | -8.3 | -5.9 | 2.5
NC(=O)NCCc1ccccc1 | -25.7 | 3.4 | 7.2 | 3568 | 3.9 | -10.5 | -1.7

Screens (PubChem)
